Menin MLL FP FL: qHTS Assay for Inhibitors Targeting the Menin-MLL Interaction in MLL Related Leukemias: Competition With Fluorescein Labeled MLL-derived Peptide | Fluorescence polarization, fluorescein-MLL peptide displacement from menin | FP activity change, % at 61.4 µM | 290,000 tested, under 10 active | AID 1766, 2009; inconclusive = falling polarisation curve, or a change in total fluorescence; inactive = total fluorescence flat and polarisation flat or rising; no compound was filed as active; the % refers to the polarisation; negative = inhibition;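 note: % of control where 0% means no effect; inhibitors lower the polarisation; unlabelled MLL peptide was the positive control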
gsp antagonist: qHTS for Antagonists of gsp, the Etiologic Mutation Responsible for Fibrous Dysplasia/McCune-Albright Syndrome: qHTS; gsp-mutant cells, cAMP HTRF, 30 min; control for the full effect not named in the record; Potency, µM (highest dose often 76.9 µM), for inactives: top-dose activity change, negative = inhibition, usual class: inhibitors; 340,000 compounds, 0.4% hits; AID 624288, 2012; active = falling curve of any shape with a large fitted effect; inconclusive = falling curve, mostly with a smaller effect; inactive = flat or rising curve; cell line not stated here;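 note: intracellular cAMP measured with PDE inhibitor Ro 20-1724 present during compound exposure; potency is the fitted concentration of half-maximal effect; % is set by controls: 0 for no effect and ±100 for the full control effect; nearly all actives have a fitted effect of over 65% in size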
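G418-selected cells were plated in DMEM/10% FBS for 16-24 h at 37C, then treated with compounds plus the PDE inhibitor […] (300 uM solution added) for 30 min at 37C. Intracellular cAMP was measured by HTRF after 30 min lysis at room temperature.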
TRPML1 blocker: qHTS for Inhibitors of the Human Mucolipin Transient Receptor Potential 1 (TRPML1); Mucolipin-1 (Homo sapiens), Q9GZU1; TRPML1-inducible cells, Ca2+ dye fluorescence, FDSS; hits give low values; inhibition of EC80 agonist-evoked calcium signal; activity change, negative = inhibition, % (concentration not given with the values); 390,000 compounds, 0.02% hits; in the data active means activity change below about -50%; inconclusive means about -30% to -50%; inactive means above about -30%;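 note: stimulus is agonist 54-4 at its EC80 concentration; % is set by controls: 0 for no effect and ±100 for the full control effect; the text of the record puts the active cut at -80%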
Target sequence (Q9GZU1 whole entry, looked up): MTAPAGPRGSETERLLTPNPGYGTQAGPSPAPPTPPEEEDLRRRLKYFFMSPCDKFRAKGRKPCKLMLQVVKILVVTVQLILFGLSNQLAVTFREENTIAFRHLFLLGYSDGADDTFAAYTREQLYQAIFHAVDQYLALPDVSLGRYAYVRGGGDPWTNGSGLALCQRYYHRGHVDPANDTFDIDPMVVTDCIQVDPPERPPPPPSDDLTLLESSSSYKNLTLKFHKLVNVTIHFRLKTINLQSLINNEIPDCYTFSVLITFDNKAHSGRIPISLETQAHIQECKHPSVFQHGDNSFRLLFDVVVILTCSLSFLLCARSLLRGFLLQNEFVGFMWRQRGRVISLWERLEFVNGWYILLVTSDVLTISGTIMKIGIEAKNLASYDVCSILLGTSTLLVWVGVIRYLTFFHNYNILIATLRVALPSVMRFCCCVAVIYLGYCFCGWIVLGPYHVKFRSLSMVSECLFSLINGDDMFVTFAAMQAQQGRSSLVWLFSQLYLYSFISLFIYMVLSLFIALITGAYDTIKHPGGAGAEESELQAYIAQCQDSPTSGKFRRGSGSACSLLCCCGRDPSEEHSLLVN
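TRPML1-DL cells, Tet-induced overnight (~16 h, 37 °C) at 1,500 cells/well, were loaded with Ca8 no-wash dye plus quencher for 45-90 min at room temperature. Compounds were pinned during FDSS kinetic reading; agonist 54-4 at EC80 (4 uM final) then added.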
TRPML1 ag: qHTS for Agonists of the Human Mucolipin Transient Receptor Potential 1 (TRPML1). TRPML1-expressing cells, Ca2+ dye fluorescence, FDSS; host cell line not named in the record; reference of the full effect not given here. activation, % (concentration not given with the values). 410,000 compounds, 0.12% hits. AID 624414, 2012; in the data active = activation above about 50%; inconclusive = about 30% to 50%; inactive = below about 30%; note: 0% is about no effect; the text of the record puts the active cut at 80%
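Agonist activity was taken from a 110 s kinetic Ca2+ dye read on the FDSS after pinning compounds onto TRPML1-DL cells. The cells were seeded at 1,500/well with Tet inducer, incubated about 16 h, then dye-loaded at room temperature.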
gsp agonist: qHTS for Agonist of gsp, the Etiologic Mutation Responsible for Fibrous Dysplasia/McCune-Albright Syndrome: qHTS; gsp mutant cells, cAMP HTRF, 30 min; control for the full effect not named in the record; Potency, µM (top dose mostly 76.9 µM), for inactives: at the top dose activation (cAMP increase), most hits filed as activators; 340,000 compounds, 0.13% hits; active = well fitted activation curve with a large enough effect; inconclusive = small, poorly fitted or top-dose-only effect, or another doubt; inactive = no such curve, though single readings can be large or run the other way; cell line not stated here;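 note: phosphodiesterase inhibitor Ro 20-1724 added with compounds to block cAMP breakdown; potency is the fitted concentration of half-maximal effect; nearly all actives have a fitted effect of over 60% in size; about a fifth of the inactives were tested at one dose only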
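Cells in DMEM/10% FBS with G418 were pretreated with compounds in DMSO plus […] (300 uM stock) for 30 min at 37C. cAMP was measured by HTRF (cAMP-d2 plus anti-cAMP antibody-K) after 30 min at room temperature.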
ClpP mod: qHTS Assay for Activators of ClpP; purified B. subtilis ClpP, FRET peptide cleavage, 20 min; Potency, µM (series often up to 57.5 µM), without a hit: at the highest dose activity change, negative = active; 340,000 compounds, 1.9% hits; ATP-dependent Clp protease proteolytic subunit (Bacillus subtilis (strain 168)), P80244; active = well fitted falling curve with a large enough effect; inconclusive = small, poorly fitted or top-dose-only effect; inactive = no such curve, though single readings can be large or run the other way; note: potency is the fitted concentration of half-maximal effect; the source files actives as falling curves though it sought activators and does not explain the sign; nearly all actives have a fitted effect of over 65% in size; many hits overshoot -100%
Target sequence (P80244 whole entry, looked up): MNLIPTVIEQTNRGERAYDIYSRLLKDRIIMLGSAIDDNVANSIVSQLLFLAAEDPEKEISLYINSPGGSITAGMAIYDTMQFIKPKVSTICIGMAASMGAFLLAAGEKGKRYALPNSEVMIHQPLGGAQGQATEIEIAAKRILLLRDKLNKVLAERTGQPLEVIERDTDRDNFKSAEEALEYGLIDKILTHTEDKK
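ClpP 10 microg/mL final, pH 8 Tris/KCl buffer with BSA, glycerol, Tween-20; compound pinned in; FRET-FV substrate; RT 20 min; Ex320/Em430; ΔFRET vs ADEP 5.8 microM, DMSO, no enzyme.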
Active calls of the source: *; ? = inconclusive; · = no result given; & = joins results of further samples; [ ] = dose if it differs, or a comment.

SMILES | Menin MLL FP FL | gsp antagonist | TRPML1 blocker | TRPML1 ag | gsp agonist | ClpP mod
O=C(c1ccc(Cl)c(S(=O)(=O)N2CCCCCC2)c1)N1CCN(c2ccccn2)CC1 | -5.4 | ? | -1.1 | 0.1 | -26.9% | -1.1%
Cc1ccc(NC(=O)C2(C)Cc3ccccc3C(=O)O2)cc1 (stereo not drawn) | 1.4 | 2.2% | -7.3 | 0.7 | -100.1%[inhibitor] | 1.7%
COc1cc(OC)cc(C(=O)N2CC(=O)Nc3ccc(Cl)cc3C2c2ccccc2)c1 (stereo not drawn) | · | · | -1.7 | -0.7 | · | 0.4%
O=C1OCCC1Sc1nnc(-c2ccc3c(c2)OCO3)o1 (stereo not drawn) | -2.9 | 4.1% | 14.5 | -0.7 | 11.2% | 2.5%
Cc1ccccc1Nc1nc(N)nc(COC(=O)c2ccccc2)n1 | 7.0 | 11.5% | 2.4 | -0.1 | -29.9% | 1.6%
O=C(c1cc2nc(-c3ccc(Cl)cc3)cc(C(F)(F)F)n2n1)N1CCOCC1 | 0.5 | -3.5% | -3.9 | 2.4 | -11.5% | 3.5%
CCN1CCN(CCNC(=O)c2cn(C(C)c3ccccc3F)nn2)CC1 (stereo not drawn) | 2.9 | 3.2% | -6.4 | 0.1 | ? | 1.3%
O=C(O)CCC(=O)NN1C(=O)c2ccccc2NC1c1ccco1 (stereo not drawn) | 0.0 | 17.5% | · | · | 14.8% | 4.0%
CC(C(=O)Nc1ccc(S(=O)(=O)N2CCCC2)cc1)N1CCN(C(=O)c2ccco2)CC1 (stereo not drawn) | 0.6 | -11.9% | -6.9 | 1.4 | -2.9% | -0.5%
CC(=O)NCCc1cnc[nH]1 | -11.3 | 1.5% | · | · | · | -1.9%
CCOC(=O)c1ccc(N2C(=O)c3n[nH]c(-c4ccco4)c3C2c2cccc(F)c2)cc1 (stereo not drawn) | · | · | -12.7 | 0.5 | · | -1.8%
O=c1oc(-c2ccccc2)nc2sc3c(c12)CCC3 | -0.3 | -16.2% | -9.9 | -1.4 | -2.4% | 9.0%
CCC(C)(C)NC(=O)Cc1ccc(C)cc1 | -1.6 | 6.2% | 2.2 | -1.0 | -11.4% | 1.2%
CCn1c(CC(=O)Nc2ccccc2)nnc1SCC(=O)N1CCOCC1 | -1.9 | 13.5% | -4.5 | -0.6 | 6.0% | 1.8%
COc1ccc(NC(=O)c2cccs2)c([N+](=O)[O-])c1 | 7.5 | -9.0% | -10.9 | -1.3 | -6.7% | ?
CSC1=NCCN1C(=O)c1c(-c2ccccc2Cl)noc1C | -0.4 | 0.2% | 17.8 | -0.2 | -21.2% | -1.3%
CCCCCCCOc1ccc(C(=O)Nc2cccnc2)cc1 | 0.5 | 4.5% | 4.8 | 0.4 | -0.9% | ·
COc1ccc([C@H]2N[C@]3(CCCN(Cc4ccc(Br)cc4)C3=O)[C@H]3C(=O)N(C)C(=O)[C@@H]23)cc1 | · | · | 49.7 | -0.2 | -7.5% | -0.6%
CC(NC(=O)CC1SC(N)=NC1=O)c1ccccc1 (stereo not drawn) | -0.7 | 6.8% | 18.8 | 0.1 | ? | -1.0%
CC(C)CC(NC(N)=O)C(=O)Nc1ccc(Oc2ccccc2)cc1 (stereo not drawn) | 2.0 | 4.6% | -8.5 | -1.0 | -10.7% | ·
CC(=O)Nc1ccc(CN2CCN(c3cccc(C(F)(F)F)c3)CC2)cc1 | 2.5 | 13.0% | -4.7 | -1.0 | -41.3%[inhibitor] | -1.6%
O=S(=O)(c1ccc(=S)[nH]c1)N1CCN(Cc2ccccc2)CC1 | · | 4.5% | -0.8 | -0.5 | -0.7%[15.4 µM] | 0.4%
CN1CCN(C(=O)C2=C[C@@H](C3CCCCC3)C[C@@H](OCCCCO)O2)CC1 | -2.3 | 2.6% | -12.4 | 2.9 | · | 0.3%
CC(C)Sc1nc2c(cnn2-c2ccccc2)c(=O)[nH]1 | -1.8 | 7.1% | 7.4 | 0.9 | ? | -1.5%
COc1ccc(-c2sc3cc4c(cc3c2C#Cc2ccc(N)cc2)OCO4)cc1 | · | 11.4% | -2.4 | -0.3 | · | 4.8%
CCC(C(=O)NC(C)(C)C)N(C(=O)c1ccc(Cl)nc1)C1CCCC1 (stereo not drawn) | -1.8 | -4.0% | 15.6 | -0.2 | -20.8% | -0.2%
CCCc1cc(=O)n2[nH]c(C)c(-c3ccc(OC)cc3)c2n1 | -3.2 | -2.9% | -2.9 | 4.1 | 2.6% | -10.3%
CNC(=O)COc1cccc(C(=O)NCc2ccccc2)c1 | 7.2 | 6.3% | 10.4 | 0.5 | -1.6%[15.4 µM] | -4.8%
O=C(COC(=O)c1ccccc1Cl)NC1CCCCCC1 | · | 2.7% | 0.7 | 0.3 | -20.0% | 2.5%
COCCn1c(=N)c(C(=O)NCc2ccco2)cc2c(=O)n3cc(C)ccc3nc21 | ? | 0.1% | 7.7&-8.4 | 0.6&-0.6 | 19.2% | 4.1%
CCc1cccc(NC(=O)Nc2cccs2)c1 | ? | -0.2% | -1.7 | -0.1 | -8.0% | -3.0%
N#Cc1cccc(C(c2nnnn2Cc2ccccc2)N2CCCC2)c1 (stereo not drawn) | 2.9 | -16.0% | 20.3 | 0.1 | 1.9% | -0.7%
O=C(CSc1oc(-c2ccco2)nc1S(=O)(=O)c1ccc(Cl)cc1)c1ccc(Cl)cc1 | · | · | 16.2 | 0.8 | · | 0.2%
Cc1ccc(CNC(=O)CN2N=C(c3ccc(C)cc3)CCC2=O)cc1 | · | · | 3.9 | -0.3 | · | 0.4%
CC1=C(C(=O)OCC2CCCO2)C(c2coc3ccccc3c2=O)C2=C(CC(C)(C)CC2=O)N1 (stereo not drawn) | -6.4 | · | 6.4 | 0.3 | 3.3%[15.4 µM] | ·
CN1C2CCC1CC(NC(=O)c1cccc(C(F)(F)F)c1)C2 (stereo not drawn) | 2.9 | 10.1% | -7.8 | 0.7 | 25.7% | -0.4%
CCCOc1ccc(C(=O)NNC(=S)NC(=O)CC)cc1 | 13.1 | -9.5% | -5.0 | -0.9 | 2.5% | -1.2%
O=S(Cc1ccc(Br)cc1)Cc1nnc(SCc2c(F)cccc2Cl)n1-c1ccccc1 (stereo not drawn) | 1.5 | ? | -1.6 | 1.2 | 9.0% | 31.6µM*
CSc1c(C#N)c(N)nc2sc(C(=O)c3ccccc3)c(N)c12 | ? | 8.0% | 10.0 | 7.5 | -4.8%[15.4 µM] | ·
COC(=O)CN(c1ccccc1)S(=O)(=O)c1ccc(F)cc1 | 2.3 | -2.6% | -2.6 | -1.4 | 0.0% | 1.4%
CC(C)CCN1CCN(Cc2ccc3nsnc3c2)CC1CCO (stereo not drawn) | 5.0 | 3.8% | -14.5 | -0.3 | ? | ·
COCCN(C(=O)CCc1nnc(Cc2c[nH]c3ccccc23)o1)C(C)C | -0.6 | 2.1% | 9.7 | 0.8 | -9.1% | -0.9%
O=[N+]([O-])c1ccc(C=Nc2ccc(Cl)cc2Cl)s1 | -0.6 | -7.1% | 6.3 | -0.2 | -52.2%[inhibitor] | 1.1%
COc1ccc2nc(NC(=O)c3ccc(S(=O)(=O)N4CCC(C)CC4)cc3)sc2c1 | · | · | -12.8 | 1.6 | · | 2.0%
CCOc1c(C)cnc2c1c(=O)n(Cc1ccccc1Cl)c(=O)n2C | -5.0 | -17.2% | -4.4 | -1.0 | 49.8% | -12.1%
CCOc1ccc(C(=O)OCc2cc(=O)n3cc(C)sc3n2)cc1 | · | · | -2.8 | -0.5 | · | -3.6%
CCC(Sc1nc2ccc(N)cc2s1)C(=O)Nc1nccs1 (stereo not drawn) | 2.0 | -16.9% | 3.8 | 0.2 | -1.8% | 8.9%
Nc1ccc2cccc(O)c2c1 | · | -0.1% | -2.4 | -0.8 | -4.3% | ·
Cc1cc(C)n2nc(SCc3ncc(-c4ccccc4)o3)nc2n1 | 7.6 | 0.5% | 15.6 | 1.7 | 11.6%[15.4 µM] | ?
Cc1ccc(S(=O)(=O)N2CCN(C(=O)COC(=O)C3CC3C)CC2)c(C)c1 (stereo not drawn) | · | 1.1% | -2.4 | 1.2 | ? | -2.1%
COc1ccc(C(CNC(=O)COc2cccc(C(F)(F)F)c2)N2CCCC2)cc1 (stereo not drawn) | · | 8.7% | 4.1 | -0.6 | -5.1% | 1.2%
COc1cc(C2C(C(=O)Nc3ccccc3C)=C(C)Nc3nc(SCc4cc(C)ccc4C)nn32)ccc1O (stereo not drawn) | · | · | 42.9 | 2.1 | · | -2.4%
CCOc1ncccc1C(=O)OCC(=O)Nc1ccc(C(N)=O)cc1 | 1.1 | 10.2% | · | · | 20.1% | 0.4%
O=C1CC(c2ccccc2)Sc2ccccc2N1Cc1ccccc1F (stereo not drawn) | · | · | 53.0 | 6.2 | · | -0.2%
Nn1c(SCc2cccc(Br)c2)nnc1-c1cccnc1 | 6.4 | 21.8% | -9.2 | -0.2 | 6.7%[15.4 µM] | ·
COc1ccc(NC(=O)CN(C)CC(=O)Nc2cccc(S(=O)(=O)N(C)c3ccccc3)c2)cc1 | 1.0 | ? | -1.8 | 2.1 | 1.5%[15.4 µM] | 24.4%
Cc1cc(NC(=O)c2c(F)cccc2Cl)no1 | 2.7 | 5.9% | -12.8 | -0.6 | -10.2%[15.4 µM] | ·
CCOC(=O)C1CCN(c2c(NCCN3CCCCC3C)c(=O)c2=O)CC1 (stereo not drawn) | 1.2 | 1.7% | 19.7 | -0.4 | -16.2% | 2.6%

One compound at a time (already shown). Values in the order: Menin MLL FP FL, gsp antagonist, TRPML1 blocker, TRPML1 ag, gsp agonist, ClpP mod
Listed for COc1cc(C2C(C(=O)Nc3ccccc3C)=C(C)Nc3nc(SCc4cc(C)ccc4C)nn32)ccc1O (stereo not drawn) : ·, ·, 42.9, 2.1, ·, -2.4%
Listed for CCOc1ncccc1C(=O)OCC(=O)Nc1ccc(C(N)=O)cc1 : 1.1, 10.2%, ·, ·, 20.1%, 0.4%
Listed for Nn1c(SCc2cccc(Br)c2)nnc1-c1cccnc1 : 6.4, 21.8%, -9.2, -0.2, 6.7%[15.4 µM], ·

Bioassay records (PubChem)
